AID923 = qHTS Assay for Allosteric/Competitive Inhibitors of Caspase-1: Spectroscopic Profiling in AFC Spectral Region; AID 923, 2007; Potency, µM (doses to about 57.5 µM), for the others: at the highest dose fluorescence increase, most hits filed as activators; compound fluorescence, AFC spectral region (405/520 nm); almost no hit is shown here; 75,000 tested, 1.1% active; active = well fitted activation curve with a large enough effect; inconclusive = small, poorly fitted or top-dose-only effect;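 also: potency is read from the fitted curve at half-maximal effect; 0% is about no effect; scaled to a free AFC standard on each plate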
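Titrations up to 57 uM read every 20 sec for 3 min (405/520 nm) with 50 nM caspase 1 and 5 uM Ac-WEHD-AFC, pH 7.5 HEPES buffer. Fluorescence-vs-time intercept gave baseline, scaled against on-plate AFC standard.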
A647 fluor = qHTS Assay for Spectroscopic Profiling in A647 Spectral Region. max dye-equivalent concentration, M. Compound fluorescence, A647 channel (570/671 nm), Tris buffer. 59,000 tested, under 10 active; active means above 1 µM dye equivalent; inconclusive means 0.1 to 1 µM; inactive means 0.1 µM or less;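 also: values scaled relative to a standard on each plate; highest value over a series up to 38 µM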
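Spectral profiling of library compounds in pH 8.0 Tris: 15 min room-temperature incubation, single ex/em pair (570/671 nm), response normalized to Alexa 647 equivalents.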
A488 autofl = qHTS Assay for Spectroscopic Profiling in A488 Spectral Region | compound autofluorescence, A488 spectral region, dye equivalency; stronger effect = higher value | max dye equivalency, M | 59,000 tested, 0.1% active | AID 591, 2007; active = above 10 nM dye equivalent; inconclusive = 1 to 10 nM; inactive = 1 nM or less; about half of its hits are not listed in these tables;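 also: highest value over a series up to 38 µM; compound alone in buffer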
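Intrinsic compound fluorescence is measured in 100 mM Tris buffer at pH 8.0 following 15 min incubation at room temperature. Intensities at 480 nm excitation/540 nm emission are calibrated to an on-plate A488 concentration series, giving dye-equivalent concentrations.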
TSHR agonist = qHTS Assay for Agonists of the Thyroid Stimulating Hormone Receptor; Thyrotropin receptor (Homo sapiens), P16473; HEK293-CNG-TSHR cells (CNG channel as cAMP sensor), membrane potential dye, cAMP; Potency, µM (top dose mostly 57.1 µM), inactives show at the top dose activation, hits mostly activators; 73,000 tested, 0.48% active; active = well fitted activation curve of enough size with the parental cells flat; inconclusive = any curve in the parental cells; inactive = parental cells flat and receptor cells flat or falling; also: potency is read from the fitted curve at half-maximal effect; % of control where 0% means no effect; weak receptor curves with flat parental cells got no call and are not listed
Target sequence (P16473 whole entry, looked up): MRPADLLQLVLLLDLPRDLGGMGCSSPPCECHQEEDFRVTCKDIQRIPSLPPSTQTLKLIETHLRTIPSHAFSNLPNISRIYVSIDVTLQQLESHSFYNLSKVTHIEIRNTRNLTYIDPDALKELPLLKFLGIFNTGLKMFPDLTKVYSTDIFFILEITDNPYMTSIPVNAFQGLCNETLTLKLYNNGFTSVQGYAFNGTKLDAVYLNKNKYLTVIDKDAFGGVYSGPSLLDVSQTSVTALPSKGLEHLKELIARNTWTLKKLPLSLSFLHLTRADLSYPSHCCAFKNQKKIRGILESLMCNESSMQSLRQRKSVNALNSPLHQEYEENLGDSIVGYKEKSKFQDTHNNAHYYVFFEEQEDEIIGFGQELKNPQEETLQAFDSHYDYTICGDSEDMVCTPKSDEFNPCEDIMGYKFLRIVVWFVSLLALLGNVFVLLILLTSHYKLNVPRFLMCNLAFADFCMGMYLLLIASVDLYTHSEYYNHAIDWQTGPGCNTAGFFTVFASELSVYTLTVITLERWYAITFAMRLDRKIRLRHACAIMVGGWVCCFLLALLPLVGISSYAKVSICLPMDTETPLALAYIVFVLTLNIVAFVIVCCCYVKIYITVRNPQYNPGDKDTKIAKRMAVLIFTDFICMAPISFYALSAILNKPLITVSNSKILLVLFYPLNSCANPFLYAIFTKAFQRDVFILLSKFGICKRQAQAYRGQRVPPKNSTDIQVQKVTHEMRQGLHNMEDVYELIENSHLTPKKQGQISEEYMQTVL
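cAMP rise detected as CNG-channel membrane depolarization by fluorescent dye (emission 590 nm), 30 min after compound, following 60 min dye loading containing 100 uM RO 20-1724 at room temperature. Cells: TSHR/CNG HEK 293, with parental CNG HEK 293 as control.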
Resorufin fluor = qHTS Assay for Spectroscopic Profiling in Resorufin Spectral Region. Compound fluorescence, resorufin region 547/598 nm, buffer; stronger effect = higher value. max dye-equivalent concentration, M. 59,000 tested, 0.04% active; active = above 10 nM dye equivalent; inconclusive = 1 to 10 nM; inactive = 1 nM or less; a few of its hits are not listed in these tables; also: highest value over a series up to 38 µM
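Dye-equivalent concentration values derive from comparing each well's 547/598 nm fluorescence against resorufin standards included on every plate. Incubation was 15 min at room temperature in 100 mM Tris, pH 8.0.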
The depositor's hits bear a star; & = joins results of further samples; [ ] = dose if it differs, or a comment.

COc1ccc(OC)c(-c2cc(C(=O)Nc3c(C)nn(Cc4ccccc4)c3C)no2)c1 was read as AID923 -1.5%, A647 fluor 1e-09, A488 autofl inactive, TSHR agonist 4% and Resorufin fluor inactive.
CCOC(=O)/C(C(N)=NC)=C(\O)c1ccccc1 was read as AID923 -1.9%, A647 fluor 1e-09, A488 autofl inactive, TSHR agonist -2% and Resorufin fluor inactive.
Screening CCCOc1ccc(C2c3c(oc4ccccc4c3=O)C(=O)N2CCCN2CCOCC2)cc1 (centres undefined) returned AID923 0.1%, A647 fluor 4.8e-09, A488 autofl inactive, TSHR agonist 16% and Resorufin fluor inactive.
For CC(=O)N1CCc2cc(S(=O)(=O)NCCC(=O)N3CCc4ccccc4C3)ccc21 the results were AID923 -0.2%, A647 fluor 2.3e-08, A488 autofl inactive, TSHR agonist 24% and Resorufin fluor inactive.
O=C(Nc1ccc2c(c1)OCO2)C1CCN(C(=O)c2cccs2)CC1 was read as AID923 0.2%, A647 fluor 4.9e-09, A488 autofl inactive, TSHR agonist 5% and Resorufin fluor inactive.
For CCC(=Nc1ccc(Cc2ccncc2)cc1)c1c(O)n(C)c(=O)n(C)c1=O the results were AID923 1.1%, A647 fluor 1e-09, A488 autofl inactive, TSHR agonist 22% and Resorufin fluor inactive.
`COc1ccccc1OCc1ccc(C(=O)n2nc(C)c(Cl)c2C)o1` gave AID923 -0.5%, A647 fluor 3.4e-09, A488 autofl inactive, TSHR agonist inconclusive and Resorufin fluor inactive.
Screening COc1ccc(C(=O)Nc2ccc3c(c2)nc2n3CCSC2)cc1 returned AID923 14%, A647 fluor 2.7e-08, A488 autofl inactive, TSHR agonist -32%[inhibitor] and Resorufin fluor inactive.
For CCCCOc1ccc(C(=O)CCNC(C(=O)O)C(C)CC)cc1 (centres undefined) the results were AID923 -0.4%, A647 fluor 2.2e-08, A488 autofl inactive, TSHR agonist 1% and Resorufin fluor inactive.
O=C(O)c1cccnc1SC1CC(=O)N(Cc2ccccc2)C1=O (centres undefined) was read as AID923 1.1%, A647 fluor 1e-09, A488 autofl inactive, TSHR agonist -3% and Resorufin fluor inactive.

A stretch of the results above, for reference:
COc1ccc(OC)c(-c2cc(C(=O)Nc3c(C)nn(Cc4ccccc4)c3C)no2)c1 was read as AID923 -1.5%, A647 fluor 1e-09, A488 autofl inactive, TSHR agonist 4% and Resorufin fluor inactive.
CCOC(=O)/C(C(N)=NC)=C(\O)c1ccccc1 was read as AID923 -1.9%, A647 fluor 1e-09, A488 autofl inactive, TSHR agonist -2% and Resorufin fluor inactive.
Screening CCCOc1ccc(C2c3c(oc4ccccc4c3=O)C(=O)N2CCCN2CCOCC2)cc1 (centres undefined) returned AID923 0.1%, A647 fluor 4.8e-09, A488 autofl inactive, TSHR agonist 16% and Resorufin fluor inactive.
For CC(=O)N1CCc2cc(S(=O)(=O)NCCC(=O)N3CCc4ccccc4C3)ccc21 the results were AID923 -0.2%, A647 fluor 2.3e-08, A488 autofl inactive, TSHR agonist 24% and Resorufin fluor inactive.

(next part)
Screening Cc1ccc(C(=O)CSc2nnc(-c3ccccc3N)n2C)cc1 returned AID923 -1.8%, A647 fluor 9.4e-09, A488 autofl inactive, TSHR agonist -5% and Resorufin fluor inactive.
CCCOC(=O)c1cc(=O)[nH]c2ccccc12 was read as AID923 0.6%&0.2%, A647 fluor 1e-09&1e-09, A488 autofl inactive, TSHR agonist 12% and Resorufin fluor inactive.
Screening CC(c1ccccc1)N1CC(C(=O)N2CCN(c3ccccc3)CC2)CC1=O (centres undefined) returned AID923 -1.0% and TSHR agonist 4%.
For CCn1c(C(=O)N2CCC(C(=O)NCc3cccs3)CC2)cc2sccc21 the results were AID923 0.7% and TSHR agonist inconclusive.
Screening Cc1ccc(-n2c(C)cc(C)c(C#N)c2=O)cc1 returned AID923 0.1%, A647 fluor 1e-09, A488 autofl inactive, TSHR agonist 1% and Resorufin fluor inactive.
Screening O=C(CS(=O)(=O)c1c[nH]c2ccccc12)N1CCCCC1 returned AID923 -2.6%, A647 fluor 5.8e-09, A488 autofl inactive, TSHR agonist 2%[11.4 µM] and Resorufin fluor inactive.
Screening COc1ccc(OC)c(S(=O)(=O)N2c3ccccc3CC2C)c1 (centres undefined) returned AID923 -0.3%, A647 fluor 3.2e-09, A488 autofl inactive, TSHR agonist inconclusive and Resorufin fluor inactive.
Screening CCCOc1ccc(/C(O)=C2/C(=O)C(=O)N(CCN(C)C)C2c2ccco2)cc1 (centres undefined) returned AID923 2.5% and TSHR agonist 0%.
For Oc1c(Br)cc(Br)cc1CN(Cc1cc(Br)cc(Br)c1O)C1CCCCC1 the results were AID923 2.6%[11.5 µM], A647 fluor 2.7e-08, A488 autofl inactive, TSHR agonist -2%[11.4 µM] and Resorufin fluor inactive.
CNc1ncncc1-c1ccccc1C was read as AID923 4.1%, A647 fluor 1e-09, A488 autofl inactive, TSHR agonist 1% and Resorufin fluor inactive.
Screening CC(=O)NC1C(=O)SC1(C)C (centres undefined) returned AID923 -0.8%, A647 fluor 1e-09, A488 autofl inactive, TSHR agonist 23% and Resorufin fluor inactive.
CCOC(=O)N1CCC(NC(=O)C2CCCN(S(=O)(=O)c3cccc4nsnc34)C2)CC1 (centres undefined) was read as AID923 -0.6%, A647 fluor 1.5e-09, A488 autofl inactive, TSHR agonist -9% and Resorufin fluor inactive.
For O=C1c2[nH]nc(-c3ccccc3O)c2C(c2ccccc2F)N1Cc1ccco1 (centres undefined) the results were AID923 -1.3%, A647 fluor 1e-09, A488 autofl inactive and Resorufin fluor inactive.
Screening CCNc1nc(NCc2ccccc2)nc(Oc2ccc(=O)[nH]n2)n1 returned AID923 -0.9%, A647 fluor 1e-09, A488 autofl inactive, TSHR agonist 102% and Resorufin fluor inactive.
Cc1ccc(S(=O)(=O)N(C)Cc2nc(-c3ccc(Br)cc3)no2)cc1 was read as AID923 3.6% and TSHR agonist inconclusive.
CCN(CC)CC(=O)Nc1ccc(-c2nc3cc(NC(=O)CN(CC)CC)ccc3o2)cc1 was read as AID923 -0.5%, A647 fluor 5.5e-09, A488 autofl inactive, TSHR agonist -25% and Resorufin fluor inactive.
For c1ccc(C2CC(c3ccccc3)n3ncnc3N2)cc1 (centres undefined) the results were AID923 0.2%, A647 fluor 1.1e-08, A488 autofl inactive, TSHR agonist -2% and Resorufin fluor inactive.
CN(C)CCOC(=O)CCc1ccccc1 was read as AID923 -1.6%, A647 fluor 8.3e-09, A488 autofl inactive, TSHR agonist 2% and Resorufin fluor inactive.
For c1ccc2c(c1)C(=Nn1cnnc1)c1ccccc1-2 the results were AID923 -1.5%, A647 fluor 2.3e-08, A488 autofl inactive, TSHR agonist 1%[11.4 µM] and Resorufin fluor inactive.
For Cc1nnc(NC(=O)CCCN2C(=O)c3ccccc3C2=O)s1 the results were AID923 0.1%, A647 fluor 7.9e-09, A488 autofl inactive, TSHR agonist -3% and Resorufin fluor inactive.
Screening CS(=O)(=O)N(CC(=O)NCc1ccco1)c1ccc2c(c1)OCO2 returned AID923 -2.9%, A647 fluor 1.6e-09, A488 autofl inactive, TSHR agonist 3% and Resorufin fluor inactive.
CCNC(=O)CC1C(=O)N(c2ccccc2)C(=O)N1CCC(C)C (centres undefined) was read as AID923 -0.6%, A647 fluor 5.8e-08, A488 autofl inactive, TSHR agonist 0% and Resorufin fluor inactive.
Screening CC(C)C(=O)Nc1cccc(C(=O)Nc2nncs2)c1 returned AID923 0.2%, A647 fluor 2e-09, A488 autofl inactive, TSHR agonist -1% and Resorufin fluor inactive.
Screening CCOc1ccc(S(=O)(=O)n2nc(C)cc2C)c2ccccc12 returned AID923 -0.1% and TSHR agonist inconclusive.
For CC(=O)N1CCC2(CC1)CC(=O)c1cc(OCC(=O)NCc3ccco3)ccc1O2 the results were AID923 14%, A647 fluor 4.6e-09, A488 autofl inactive, TSHR agonist -1% and Resorufin fluor inactive.
`O=c1cc(CSc2ccc(Cl)cc2)nc(N2CCCCC2)[nH]1` gave AID923 1.1%, A647 fluor 5.5e-09, A488 autofl inactive, TSHR agonist 6% and Resorufin fluor inactive.
For CC(=O)c1cc2c(cc1NC(=O)CCCC(=O)O)OCO2 the results were AID923 0.6%, A647 fluor 1e-09, A488 autofl inactive, TSHR agonist 0% and Resorufin fluor inactive.
For O=S(=O)(c1ccc(SCCO)nc1)N1CCCC1 the results were AID923 -0.2%, A647 fluor 3.5e-08, A488 autofl inactive, TSHR agonist -3% and Resorufin fluor inactive.
Screening CCC(=O)OCCn1c(Br)nc2c1c(=O)[nH]c(=O)n2C returned AID923 1.4%, A647 fluor 1e-09, A488 autofl inactive, TSHR agonist -2% and Resorufin fluor inactive.
O=C(CCN1CCCCCC1)Nc1cccc(Cl)c1 was read as AID923 0.3%, A647 fluor 2.5e-09, A488 autofl inactive, TSHR agonist 7% and Resorufin fluor inactive.
`CCOC(=O)N1CCC(N2Cc3cccc(C(=O)NC(C)c4ccc5c(c4)OCCO5)c3C2=O)CC1` (centres undefined) gave AID923 2.5% and TSHR agonist 1%.
Screening CCOC(=O)CCC(=O)NCc1ccc2c(c1)cc(C)n2C returned AID923 8.9%, A647 fluor 2.2e-08, A488 autofl inactive, TSHR agonist 10% and Resorufin fluor inactive.
For CCC(=O)c1ccc(OCC(O)CN(C)C2CCCCC2)cc1 (centres undefined) the results were AID923 0.7%, A647 fluor 1.9e-08, A488 autofl inactive, TSHR agonist -3% and Resorufin fluor inactive.
`Cc1nc(NCc2ccccc2)c2nc(-c3ccccc3)n(C(C)CN(C)C)c2n1` (centres undefined) gave AID923 0.7% and TSHR agonist 17%.
`Cc1nc2sc3c(c2c(=O)[nH]1)CCCC3` gave AID923 6.3%[11.5 µM], A647 fluor 1.3e-08, A488 autofl inactive, TSHR agonist 3%[11.4 µM] and Resorufin fluor inactive.
`COc1ccc(CN2CCN(c3cccc(C)c3C)CC2)cc1OC` gave AID923 -0.4% and TSHR agonist inconclusive.
For COCc1cc(C)nc(SCC(=O)Nc2cccc(C)c2C)c1C#N the results were AID923 0.4%, A647 fluor 6.1e-09, A488 autofl inactive, TSHR agonist -10% and Resorufin fluor inactive.
CC(C)c1ccc(S(=O)(=O)N2CCN(CC(=O)Nc3ccc4c(c3)OCO4)CC2)cc1 was read as AID923 0.0%, A647 fluor 1e-09, A488 autofl inactive, TSHR agonist inconclusive and Resorufin fluor inactive.
`CC(CN1CCCCC1)OC(=O)c1ccc(Cl)cc1Cl` (centres undefined) gave AID923 1.4%, A647 fluor 1e-09, A488 autofl inactive, TSHR agonist 13% and Resorufin fluor inactive.
For O=C(c1ccco1)N1CCN(C(=O)c2ccccc2OC(=O)C23CC4CC(CC(C4)C2)C3)CC1 the results were AID923 -1.2%, A647 fluor 1e-09, A488 autofl inactive, TSHR agonist 20% and Resorufin fluor inactive.
CC1Cc2ccccc2N1S(=O)(=O)c1cccs1 (centres undefined) was read as AID923 2.4%, A647 fluor 1e-09, A488 autofl inactive, TSHR agonist 26% and Resorufin fluor inconclusive.
`Cn1cnnc1SCc1ccc(-c2ccc(Br)cc2)o1` gave AID923 -1.4%, A647 fluor 1e-09, A488 autofl inactive, TSHR agonist 29% and Resorufin fluor inactive.
For CCCc1cc2c(n1CCc1ccc(Cl)cc1)C(C)C1CN(C(=O)c3ccccc3)C(C)(C(=O)OC)C21 (centres undefined) the results were AID923 -1.9% and TSHR agonist inconclusive.
`CCS(=O)(=O)N1CCC(c2nc(-c3ccc(C(F)(F)F)cc3)no2)CC1` gave AID923 -1.0%, A647 fluor 6.5e-08, A488 autofl inactive, TSHR agonist 12% and Resorufin fluor inactive.
O=C(c1c(F)c(F)c(F)c(F)c1F)N1CCc2ccccc21 was read as AID923 1.9%, A647 fluor 1.1e-08, A488 autofl inactive and Resorufin fluor inactive.

High-throughput results as filed in PubChem.

Some of the compounds tested (hit frequency here may not be typical).
